Assay outcomes: PubChem BioAssay, Emory University Molecular Libraries Screening Center
Measles inh – inhibitors of measles virus growth in infected cells | infected Vero cells, GFP fluorescence, 64 h; stronger effect = lower value | z-score (concentration not given with the values) | actives 0.1% (n = 33,000) | AID 745;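 active = z-score under -3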;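 also: score is relative to mean and SD of the compound wells of a plate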
* = called active by the depositor.

The opening 16 compounds, to show the layout:
SMILES	Measles inh
COc1ccccc1CNC(=O)c1sc(=S)n(-c2ccccc2)c1N	1.3
O=C(NCCc1ccc(Cl)cc1)c1ccc(Cn2c(=O)[nH]c3ccccc3c2=O)cc1	-1
COc1ccc2nc(NC(=O)CSc3nc(C)cc(C)n3)sc2c1	-0.07
O=C1CC(c2ccc(F)cc2)n2ncnc2N1 (centres undefined)	-0.13
Cc1c(C(=O)OCC(C)C)[nH]c2c1C(=O)CC(c1cccs1)C2 (centres undefined)	0.71
Clc1ccccc1C1CC(c2ccco2)n2ncnc2N1 (centres undefined)	1.7
COc1ccc(NC(=O)Cn2c3ccccc3c(=O)c3cc(C)ccc32)cc1Cl	0.04
CC1Cc2ccccc2N1C(=O)Cc1ccc([N+](=O)[O-])cc1 (centres undefined)	0.88
Oc1c(F)cccc1C=Nc1ccc2oc(-c3cccc(I)c3)nc2c1	2.9
CC(=O)C1C(c2ccc(OCc3ccccc3)cc2)NC(=O)NC1(O)C(F)(F)F (centres undefined)	-0.12
CC(CCc1ccccc1)NC(=O)c1ccc(N2CCCC2=O)cc1 (centres undefined)	-0.24
CCC(C)OC(=O)C1=C(C)NC(=O)NC1c1ccccc1 (centres undefined)	0.52
CCOc1ccc(N2C(=O)CC(N3CCC(C(N)=O)CC3)C2=O)cc1 (centres undefined)	-0.31
CCn1c2ccccc2c2cc(NS(=O)(=O)c3cccc([N+](=O)[O-])c3)ccc21	-0.6
COc1cccc(-c2nc3cc(N=Cc4ccc(Br)cc4)ccc3o2)c1	-0.28
COc1ccc(OC)c(C2Nc3ccccc3NC3=C2C(=O)CC(C)(C)C3)c1 (centres undefined)	-0.18

Main list, from the first entry:
SMILES	Measles inh
COc1ccccc1CNC(=O)c1sc(=S)n(-c2ccccc2)c1N	1.3
O=C(NCCc1ccc(Cl)cc1)c1ccc(Cn2c(=O)[nH]c3ccccc3c2=O)cc1	-1
COc1ccc2nc(NC(=O)CSc3nc(C)cc(C)n3)sc2c1	-0.07
O=C1CC(c2ccc(F)cc2)n2ncnc2N1 (centres undefined)	-0.13
Cc1c(C(=O)OCC(C)C)[nH]c2c1C(=O)CC(c1cccs1)C2 (centres undefined)	0.71
Clc1ccccc1C1CC(c2ccco2)n2ncnc2N1 (centres undefined)	1.7
COc1ccc(NC(=O)Cn2c3ccccc3c(=O)c3cc(C)ccc32)cc1Cl	0.04
CC1Cc2ccccc2N1C(=O)Cc1ccc([N+](=O)[O-])cc1 (centres undefined)	0.88
Oc1c(F)cccc1C=Nc1ccc2oc(-c3cccc(I)c3)nc2c1	2.9
CC(=O)C1C(c2ccc(OCc3ccccc3)cc2)NC(=O)NC1(O)C(F)(F)F (centres undefined)	-0.12
CC(CCc1ccccc1)NC(=O)c1ccc(N2CCCC2=O)cc1 (centres undefined)	-0.24
CCC(C)OC(=O)C1=C(C)NC(=O)NC1c1ccccc1 (centres undefined)	0.52
CCOc1ccc(N2C(=O)CC(N3CCC(C(N)=O)CC3)C2=O)cc1 (centres undefined)	-0.31
CCn1c2ccccc2c2cc(NS(=O)(=O)c3cccc([N+](=O)[O-])c3)ccc21	-0.6
COc1cccc(-c2nc3cc(N=Cc4ccc(Br)cc4)ccc3o2)c1	-0.28
COc1ccc(OC)c(C2Nc3ccccc3NC3=C2C(=O)CC(C)(C)C3)c1 (centres undefined)	-0.18
O=C(O)c1ccc(S(=O)(=O)c2ccc3c(c2)C(=O)N(c2cccc(C(F)(F)F)c2)C3=O)cc1	-0.72
CC(C)=CCCC(C)N1CC23C=CC(O2)C(C(=O)O)C3C1=O (centres undefined)	0.28
Nc1cccc(-c2cc(C(=O)O)c3cc(Br)ccc3n2)c1	-1.4
O=C(CSc1n[nH]c(-c2ccccc2)n1)Nc1ccc(Br)cn1	0.16
O=C1C2CC=CCC2C(=O)N1c1ccc(NCCc2cccc(F)c2)c([N+](=O)[O-])c1 (centres undefined)	-0.22
CCCn1cnc2sc(C(=O)Nc3ccccc3C(=O)OC)c(C)c2c1=O	2.4
CCC(C)NC(=O)CN1C(=O)c2ccccc2S1(=O)=O (centres undefined)	-0.48
CC(C)OC(=S)SCC(=O)c1ccc(Br)cc1	-0.04
CC(=O)N1C2C=CC(C2)C1(C(F)(F)F)C(F)(F)F (centres undefined)	-0.49

Going on with the list.
SMILES	Measles inh
COCCn1c(SCC(=O)OC)nnc1-c1c[nH]c2ccccc12	0.09
O=C(NCCN1CCOCC1)c1ccc(Cl)c([N+](=O)[O-])c1	-1.1
Cc1ccccc1OCCn1cc(C(=S)N2CCC(C)CC2)c2ccccc21	-1.5
C=CCOc1cc(Oc2ccccc2)nc(-c2ccccc2)c1C#N	-0.19
Cc1ccc(-c2nc3cccnc3o2)cc1NC(=O)COc1ccc2ccccc2c1	0.28
O=C1CSc2ccc(C(=O)NC3CCCC3)cc2N1	1.4
O=C(CN1CCN(Cc2cccc(Cl)c2)C1=O)NC1CCCCCCC1	0.45
C=C(C)Cn1c(NCCC)nc2c1c(=O)[nH]c(=O)n2C	-0.39
COc1ccc(C2Nc3c(OC)ccc(Cl)c3C3C=CCC32)cc1[N+](=O)[O-] (centres undefined)	1.4
Cc1ccc(-n2ncc3c(=O)[nH]c(SCC(=O)N4CCC(Cc5ccccc5)CC4)nc32)cc1	-1.4
COc1ccc(OC)c(NC(=O)CSc2nc3c([nH]c4ccccc43)c(=O)n2C)c1	-1.3
O=C1CSC(c2ccc(Br)cc2)N1c1cccc(Cl)c1 (centres undefined)	1.2
O=C(Nc1nc2ccccc2s1)C1CC=CCC1C(=O)OCC(F)(F)C(F)F (centres undefined)	-0.29
C=CCOC(=O)C1=C(C)NC(C)=C(C(=O)OCC=C)C1c1cccs1	-0.34
COc1cc(OC)cc(N2C(=O)CC(N3CCN(C)CC3)C2=O)c1 (centres undefined)	-0.62
Cc1c(Cl)cccc1NC1OC(=O)c2ccccc21 (centres undefined)	0.04
CCCN(CCC)C(=O)c1c[nH]c2ccc(S(=O)(=O)Nc3cc(C)cc(C)c3)cc2c1=O	-0.45
CCOC(=O)C1=C(C(=O)OCC)SC(=C2C(=S)C(C)(C)N(C(=O)C(C)C)c3cc(C)ccc32)S1	1.1
Cc1[nH]c2ccccc2c1SCCNC(=O)c1ccccc1I	-0.18
Cc1c(C(=O)OC2CCCCCC2)[nH]c2c1C(=O)CC(c1cccs1)C2 (centres undefined)	-0.48
CCOc1ccc(C(=O)Nc2ccc(-c3nc4ccccc4[nH]3)cc2)cc1Br	-0.99
Brc1ccc(C=Nc2ccc3c(c2)OCCOCCOCCO3)s1	1.9
COc1ccccc1NC1=C(Cl)C(=O)OC1NC(=O)c1ccccc1 (centres undefined)	0.22
Cc1nc2nc(SCC(=O)NCc3ccc(F)cc3)nn2c(C)c1Cc1ccccc1Cl	-0.69
COc1ccc(-n2nc3c(c2NC(=O)C2(c4ccc(Cl)cc4)CCCC2)CS(=O)(=O)C3)cc1	-0.25

Quoted at random: 2 records from the list
SMILES	Measles inh
Cc1nc2nc(SCC(=O)NCc3ccc(F)cc3)nn2c(C)c1Cc1ccccc1Cl	-0.69
O=C(NCCN1CCOCC1)c1ccc(Cl)c([N+](=O)[O-])c1	-1.1

Next compounds
SMILES	Measles inh
CCOC(=O)COc1nsnc1N1CCOCC1	0.34
Cc1ccc(NC(=O)c2cc(S(=O)(=O)NCc3ccco3)ccc2F)cc1Cl	0.12
O=C(O)CCC(=O)Nc1ccc(S(=O)(=O)N2CCCC2)cc1	-0.02
Cc1cc(-c2csc(Nc3ccc(S(N)(=O)=O)cc3)n2)ccc1F	-0.63
COC(=O)C1C(C(=O)OC)C2(OC(c3ccccc3)=CC2=O)C12OC(c1ccccc1)=CC2=O (centres undefined)	0.08
CCOCCn1cnc2sc(C(=O)Nc3ccccc3C(=O)OC)c(C)c2c1=O	-0.59
Cc1ccc(C)c(N2CCN(C(=O)c3cc(S(=O)(=O)N4CCOCC4)ccc3F)CC2)c1	-1
Nc1nc2n(n1)C(c1ccc(F)cc1)CC(c1ccc(F)cc1)N2 (centres undefined)	0.58
Cc1cccc(Nc2nc3c(s2)CCC3)c1	-2.1
CC1=C(C(=O)OC(C)C)C(c2ccc([N+](=O)[O-])cc2)c2c(nc(SCc3ccccc3F)[nH]c2=O)N1 (centres undefined)	0.96
CC(=O)Oc1cccc(C(=O)Nc2cc(-c3nc4ccccc4[nH]3)ccc2C)c1	-1.1
CC(C)c1ccc(C2SCC(=O)N2CCCN2CCN(C)CC2)cc1 (centres undefined)	0.07
CCOc1ccc(C(=O)Cc2ccccc2)cc1	0.11
COC(=O)C1CCN(C(=O)Cc2ccc(C)cc2)CC1	0.01
CC(CCOC(=O)CN1CCCCC1)CCc1ccccc1 (centres undefined)	-0.17
Cc1cc(NS(=O)(=O)c2ccc3c(c2)CCC(=O)N3)ccc1N1C(=O)c2ccc(Cl)cc2C1=O	-0.59
CC1CCCCN1CCNC(=O)c1cc(=O)[nH]c2ccc(S(=O)(=O)N3CCCCC3)cc12 (centres undefined)	-0.52
Cc1ccnc(NC(=O)c2ccc(C)c([N+](=O)[O-])c2)c1	-0.21
COCCOC(=O)C1=C(C)NC(=O)NC1c1c(Cl)nc2ccccn2c1=O (centres undefined)	-0.52
CCN(C(=O)CSc1nc2cc(OC)c(OC)cc2c2nc(C)nn12)c1cccc(C)c1	1.4
O=C(Nc1ccc(Cl)cc1C(F)(F)F)c1cc(S(=O)(=O)N2CCC(C(=O)O)CC2)ccc1F	1.2
CCCCCOC(=O)C1=C(C)NC2=C(C1c1ccc(OCC)cc1)C(C)(C)CC(=O)C2 (centres undefined)	0.29
C=CCN1C(=O)C(C(c2cccc([N+](=O)[O-])c2)C2C(=O)NC(=S)N(CC=C)C2=O)C(=O)NC1=S (centres undefined)	0.35
O=C1CCCC2=C1C(c1ccc(Cl)cc1)n1ncnc1N2 (centres undefined)	-0.35
O=C(CCS(=O)(=O)c1nc(-c2cccs2)cc(C(F)(F)F)n1)Nc1cc(Cl)ccc1O	-1.1

The listing continues.
SMILES	Measles inh
CCOC(=O)c1cnc2ccc(OCC)cc2c1Nc1ccccc1Cl	-0.1
O=C(Nc1ccccc1[N+](=O)[O-])C12CC3CC(CC(C3)C1)C2	1.1
CCCOc1ccc(C(=O)Nc2ccc(-c3nc4ccccc4o3)cc2)cc1	-0.35
Cc1ccc(C2CC(C(F)(F)F)n3nc(C(N)=O)cc3N2)cc1 (centres undefined)	2.1
COCCNC(=O)c1ccc2c(=O)n(C3CCCC3)c(=S)[nH]c2c1	-0.07
O=C(Nc1ccccc1)c1ccc2nc(NC(=O)C34CC5CC(CC(C5)C3)C4)sc2c1	-0.19
COC(=O)c1c(NC(=O)c2cccc(F)c2)sc2c1CCCC2	0.13
Cc1ccc(C2C(C(=O)O)c3ccccc3C(=O)N2C)o1 (centres undefined)	-1.1
O=C1c2cccnc2C(=O)N1c1ccc(-c2ccc([N+](=O)[O-])cc2)cc1	-0.62
COC(=O)c1ccccc1N1C(=O)C2C3c4ccccc4C(C)(c4ccccc43)C2C1=O (centres undefined)	-0.88
CC(=O)N1c2ccc(S(=O)(=O)NCCc3ccccc3)cc2CC1C (centres undefined)	1.1
CCC12CN3CC(CC)(CN(C1)C3c1ccc(O)cc1)C2=O (centres undefined)	0.71
O=C(NC1CCCC1)c1ccc2nc3ccc(Cl)cc3c(=O)n2c1	1
Cc1ccccc1-n1nc2c(c1NC(=O)c1ccc(Cl)c([N+](=O)[O-])c1)CS(=O)(=O)C2	-0.2
Cc1ccc(C)c(S(=O)(=O)N2CC(=O)N(CCc3ccccc3)C(=O)C2)c1	1.4
O=[N+]([O-])c1cc(Oc2ccccc2)cc(Oc2cccnc2)c1	-1
FC(F)(F)c1ccc2nnc(-c3ccc4c(c3)OCO4)n2c1	0.73
COCc1oc2ccc(NS(=O)(=O)c3ccc(Cl)c([N+](=O)[O-])c3)cc2c1C(=O)OC	-0.51
O=[N+]([O-])c1cccc(-c2nc3sc(-c4cccc([N+](=O)[O-])c4)nc3s2)c1	-0.21
Cc1cc(OCC(=O)Nc2c(C(C)C)cccc2C(C)C)ccc1Cl	-0.34
CC1CCN(CCCCOc2cccc(C(C)C)c2)CC1	0.57
CCOC(=O)c1c(NC(=O)c2ccccc2F)sc(C(C)=O)c1C	-0.17
CC(=O)N1CCc2cc(Br)cc(S(=O)(=O)NCCc3ccccc3Cl)c21	0.47
CCN(C(=O)c1cc2c(=O)n3cccc(C)c3nc2s1)c1ccccc1	0.41
CC(C)Oc1cccc(C(=O)Nc2ccc(-c3nc4ncccc4o3)cc2)c1	0.55

Next part
SMILES	Measles inh
CCCOc1ccc(C2Nc3ccccc3NC3=C2C(=O)CC(c2ccc(C)cc2)C3)cc1OC (centres undefined)	-0.62
COc1ccc(S(=O)(=O)N(CC(=O)NC(C)C)c2cc(C)cc(C)c2)cc1OC	-0.45
CC1CCCCC1NS(=O)(=O)c1cccc2cccnc12 (centres undefined)	-1.9
COc1ccc(N=C2SC(C(=O)Nc3ccccc3Cl)CC(=O)N2Cc2ccc(F)cc2)cc1 (centres undefined)	6.6
COC(=O)C1=CN(C23CC4CC(CC(C4)C2)C3)C=C(C(=O)OC)C1c1cc(OC)c(OC)c(OC)c1	-0.29
COc1ccccc1NC(=O)c1cc2cc3ccc(C)cc3nc2o1	0.46
CCCN1CNC(=S)N(c2ccccc2CC)C1	0.22
CCCN1Cc2cccc(C(=O)Nc3ccccc3OC)c2C1=O	-1.3
Cc1ccc(NC(=O)CSc2nc3c(c(=O)n2Cc2ccccc2)SC(C)C3)c(C)c1 (centres undefined)	1.6
O=C(CSc1nnc2scc(-c3ccccc3)n12)N1CCCCCC1	0.3
C=CCOc1ccc(C2Nc3ccc(Br)cc3-c3nnc(SC)nc3O2)cc1 (centres undefined)	-0.5
O=C(c1ccccc1Cl)N1CCN(c2ccc([N+](=O)[O-])cc2C(F)(F)F)CC1	-0.29
O=C(Cn1c(=O)oc2cc(Cl)ccc21)NCCCN1CCN(c2cccc(Cl)c2)CC1	-0.87
CN1CCN(C(=O)Cn2nc(-c3ccc(Cl)cc3)ccc2=O)CC1	-0.47
CN(C)C(=O)CSc1nc2ccccc2[nH]1	1.5
COc1ccc(CNS(=O)(=O)c2ccc(F)c(C(=O)Nc3ccc(C)c(Cl)c3)c2)cc1	-1.1
COc1ccc(-n2c(SCc3cc(=O)n4cc(Cl)ccc4n3)nc3c(sc(=S)n3-c3ccccc3)c2=O)cc1OC	0.52
O=C(CCCn1c(=S)[nH]c2cc3c(cc2c1=O)OCO3)N1CCN(c2ccccc2F)CC1	0.4

Some of the compounds tested; count on the stated rates, not on these rows.
